2A StopGo: FMDV 2A StopGo reporter, luciferase signal; AID 1159524; Potency, µM (doses to about 57.9 µM), without a hit: at the highest dose signal change, negative = less light; human cells with a luciferase reporter of 2A StopGo recoding; control for the full effect not named in the record; actives 1.2% (n = 410,000); active = well fitted falling curve with a large enough effect; inconclusive = small, poorly fitted or top-dose-only effect; inactive = no such curve, though single readings can be large or run the other way; tested in HEK293T cells; further: on the % scale 0 is the no-effect control and ±100 the full control effect; nearly all actives have a fitted effect of over 45% in size; luciferase light after 4 h
RE007 growth inh: less growth of the S. pombe RE007 Vpr strain; actives 0.21% (n = 360,000); Potency, µM (highest dose often 92.2 µM), for the others: at the highest dose activity change, negative = less growth; S. pombe RE007 Vpr strain, BacTiter-Glo ATP luminescence, 24 h; control for the full effect not named in the record; active = well fitted falling curve with a large enough effect; inconclusive = small, poorly fitted or top-dose-only effect; inactive = no such curve, though single readings can be large or run the other way;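 further: on the % scale 0 is the no-effect control and ±100 the full control effect; nearly all actives have a fitted effect of over 50% in size; the assay follows cell death caused by Vpr and the record does not say whether a fall means rescue or toxicity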
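Fission yeast strain RE007, carrying one chromosomally integrated HIV-1 vpr copy, was seeded at OD 0.01 in PMG+AL medium with 23 nL pinned compound. After 24 h at 30 °C and 99% humidity, viability was read by BacTiter-Glo luminescence.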
SARS PLP yeast: inhibitors of SARS-CoV papain-like protease in yeast | actives 0.19% (n = 330,000) | S. cerevisiae expressing SARS-CoV PLpro, growth rescue; control for the full effect not named in the record | Potency, µM (series often up to 32.9 µM), inactives show at the highest dose activity, positive = growth rescue | AID 485353; active means well fitted rising curve with a large enough effect; inconclusive means small, poorly fitted or top-dose-only effect; inactive means no such curve, though single readings can be large or run the other way; further: 0% is about no effect; nearly all actives have a fitted effect of over 55% in size; growth read by luminescence after 48 h
NS1 function inh: inhibitors of influenza NS1 protein function; S. cerevisiae slowed by influenza A NS1, growth recovery by OD600; Potency, µM (series often up to 46.1 µM), for the others: at the highest dose activity, positive = more growth; actives 0.4% (n = 270,000); AID 2326; active means well fitted rising curve with a large enough effect; inconclusive means small, poorly fitted or top-dose-only effect; inactive means no such curve, though single readings can be large or run the other way; further: nearly all actives have a fitted effect of over 50% in size
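A cell-based growth assay was used: compounds that relieve NS1-induced slow growth of budding yeast raise OD600. Assay medium was yeast nitrogen base with ammonium sulphate and -URA supplement, pH 6.0, with 2% galactose.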
MARV entry inh: blocks Marburg virus binding to or entry into cells; Marburg virus pseudotyped entry inhibition, cell reporter; control for the full effect not named in the record; about a third of the inactives were read at about 46 µM; Potency, µM (highest dose often 37.8 µM), for inactives: at the highest dose activity change, negative = inhibition, hits mostly inhibitors; actives 1.8% (n = 300,000); AID 540276; active = well fitted inhibition curve with a large enough effect; inconclusive = small, poorly fitted or top-dose-only effect, or effect the other way; inactive = flat fitted curve, though single readings scatter; tested in HEK293 cells; about a fifth of its hits are not listed in these tables; further: on the % scale 0 is the no-effect control and ±100 the full control effect; luciferase read-out
LASV entry inh: Lassa virus entry inhibition; actives 1.2% (n = 300,000); Potency, µM (doses to about 37.9 µM), for the others: at the top dose activity change, negative = inhibition, usual class: inhibitors; Lassa virus pseudotype entry inhibition, cell reporter; control for the full effect not named in the record; AID 540256; active means well fitted inhibition curve with a large enough effect; inconclusive means small, poorly fitted or top-dose-only effect, or effect the other way; inactive means flat fitted curve, though single readings scatter; tested in HEK293 cells; further: on the % scale 0 is the no-effect control and ±100 the full control effect; nearly all actives have a fitted effect of over 50% in size; luciferase read-out
Cruzain inh Det: blocks cruzain activity in presence of Triton detergent; purified cruzain, Z-FR-AMC fluorescence, 0.01% Triton; Potency, µM, without a hit: max response, negative = inhibition, actives largely listed as inhibitors; actives 0.43% (n = 200,000);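 further: plate controls were neutral wells for no effect and buffer without enzyme for full effect; nearly all actives have a fitted effect of over 40% in size; top concentration of the series not given in the record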
Target sequence (P25779 123-467 limits assumed): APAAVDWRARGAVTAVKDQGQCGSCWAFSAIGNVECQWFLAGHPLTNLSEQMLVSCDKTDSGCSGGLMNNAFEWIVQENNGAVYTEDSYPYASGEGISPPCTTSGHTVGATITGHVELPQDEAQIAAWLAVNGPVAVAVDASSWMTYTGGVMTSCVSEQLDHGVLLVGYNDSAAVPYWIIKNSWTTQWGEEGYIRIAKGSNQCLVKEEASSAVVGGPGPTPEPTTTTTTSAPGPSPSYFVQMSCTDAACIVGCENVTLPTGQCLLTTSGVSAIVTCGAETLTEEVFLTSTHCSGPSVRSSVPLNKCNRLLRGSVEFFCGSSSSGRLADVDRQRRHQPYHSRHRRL
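Sodium acetate buffer (100 mM, pH 5.5) containing 5 mM DTT and 0.01% Triton X-100 hosted 1.5 nM cruzain and test compound for 15 min at room temperature. Cleavage of 2 uM Z-FR-AMC was then tracked by fluorescence.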
Cruzain noTriton: blocks cruzain activity in detergent-free assay; P25779; actives 2.3% (n = 200,000); purified cruzain, Z-FR-AMC fluorescence, no detergent; Potency, µM, for the others: max response, negative = inhibition, actives largely listed as inhibitors;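 further: plate controls were enzyme without inhibitor for no effect and buffer without enzyme for full effect; nearly all actives have a fitted effect of over 40% in size; top concentration of the series not given in the record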
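Purified cruzain at 1.5 nM, pre-incubated 15 min with compound at room temperature in 100 mM sodium acetate pH 5.5, 5 mM DTT, 0.00005% Triton X-100. Reaction started with 2 uM Z-FR-AMC; AMC fluorescence increase over 60 s gives rate.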
Starred values were filed as active, the others as inactive; ? = inconclusive; nt = not tested or not shown; [ ] = remark or other dose. Unless noted, the call rests on the fitted dose curve; in most records, active means well fitted curve in the direction sought with a large enough effect; inconclusive means small, poorly fitted or top-dose-only effect, or another doubt; inactive means no such curve, though single readings can be large; an effect the other way counts as inactive or inconclusive. Potency means the concentration at half of the fitted maximal effect.

SMILES	2A StopGo	RE007 growth inh	SARS PLP yeast	NS1 function inh	MARV entry inh	LASV entry inh	Cruzain inh Det	Cruzain noTriton
COc1ccc(-c2nnc(SCC(=O)NCc3cccs3)n2C)cc1	nt	-8%	13%	3%	-5%	-6%	1.4%	-6%
O=C(CSc1nc2c(c(=O)n1-c1ccc(Cl)cc1)SCC2)Nc1nccs1	0%	-16%	5%	-21%	3%	-7%	-3.2%	?
O=C(O)c1cccc(N2C(=O)c3cc4cccc(Br)c4cc3C2=O)c1	-9%	11%	2%	4%	-1%[46.1 µM]	18%[46.1 µM]	nt	nt
CC(=O)c1cccc(NC(=O)/C(=C/c2ccncc2)NC(=O)c2ccccc2)c1	11%	1%	-9%	-2%	1%[46.1 µM]	24%[46.1 µM]	nt	nt
Cc1cc(C)nc(-n2c(C)nc3cc(Cl)ccc3c2=O)c1	0%	-15%	-4%	-1%	-8%	10%	5.0%	0%
COCCCC1CCN(C(=O)C2CCC(=O)N(Cc3cccc(F)c3)C2)CC1 (stereo not given)	-6%	9%	4%	2%	?	20%[46.1 µM]	nt	nt
Cc1sc2nc(CN(C(=O)NC3CCCCC3)C3CCCCC3)[nH]c(=O)c2c1C	nt	5%	13%	7%[9.22 µM]	?	-21%	-1.1%	7%
CCOCCN(C=O)c1cccc(OC)c1	21%	-2%	9%	11%	13%	-3%	0.5%	-11%
COc1cc(OC)c(N(C)C(=O)c2nn(C)c3c2CSc2ccccc2-3)cc1Cl	7%	nt	nt	nt	4%[46.1 µM]	5%[46.1 µM]	-0.1%	-4%
CCCN(CC(=O)Nc1ccccc1C)C(=O)C1CCN(S(=O)(=O)c2cccc(C(F)(F)F)c2)CC1	-11%	-10%	0%	nt	?	-3%	nt	nt
CNC(=S)N1N=C(c2ccc(C)cc2)CC1c1ccc(Br)cc1 (stereo not given)	15%	14%	19%	7%	?	?	-1.7%	2.5µM*
O=C(Cn1cncn1)N/N=C/c1ccccc1Cl	-14%	-3%	-1%	5%	nt	nt	nt	nt
COc1cccc(CCC(=O)O)c1OC	-4%	-6%	?	-4%	?	14%	2.0%	5%
COc1cc2c(cc1OC)-c1nnc(C)n1C(C)(C)C2	-8%	-4%	1%	2%	0%	-3%	6.5%	7%
Cn1c(SCC(=O)c2ccc(O)c(O)c2)nnc1-c1ccccc1	68%[activator]	5%	7%	2%	nt	nt	nt	nt
Cc1nn(-c2ccccc2)c(C)c1C(=O)OCC(=O)Nc1ccc2c(c1)OCO2	-18%	64%	4%	-64%	-1%	-4%	0.6%	-1%
COc1cc(/C=N/NC(=O)c2cn(-c3cccc(C)n3)cn2)ccc1O	-22%	19%	-4%	nt	?	-18%	nt	nt
CCOC(=O)[C@@H]1[C@H]2COc3cc(OC)ccc3[C@@H]2N2C(=O)N(c3cccc(Cl)c3)C(=O)[C@@]12C	-10%	-10%	1%	-12%	nt	nt	nt	nt
N#C/C(=C/c1cn(CC(=O)O)c2ccccc12)c1ccc(F)cc1	-18%	-22%	19%	18%	?	-4%	-16%	23%
CC(=O)c1cccc(NC(=O)Nc2sc3nc4n(c(=O)c3c2C)CCC(C)CC4)c1 (stereo not given)	-17%	nt	nt	nt	34%[46.1 µM]	nt	-0.8%	0%
CCN(C(=O)COC(=O)c1cc(-c2ccccc2)nc2c1c(C)nn2-c1ccc(C)cc1)C1CCS(=O)(=O)C1 (stereo not given)	-22%	21%	1%	-1%	0%[46.1 µM]	?	-0.2%	5%
CC(C)(Oc1ccc(Cl)cc1)C(=O)Nc1cccnc1	-28%	-8%	-2%	-13%	-11%	10%	0.3%	-2%
O=C1CC(N2CCOCC2)C(=O)N1CCc1ccccc1 (stereo not given)	-17%	-22%	-2%	-2%	0%	4%	0.9%	-8%
Cc1cccc(OCc2nc(C#N)c(N3CC(C)CC(C)C3)o2)c1 (stereo not given)	-7%	14%	-3%	-12%	0%	nt	-4.9%	-6%
COc1ccccc1OCC(=O)NCCC1=CCCCC1	-15%	8%	0%	-21%	14%	-22%	-2.2%	-2%
CO/N=C/C(c1ncc(C(F)(F)F)cc1Cl)S(=O)(=O)c1ccccc1 (stereo not given)	16%	-31%	-4%	1%	0%[46.1 µM]	23%[46.1 µM]	nt	nt
Brc1ccccc1-c1nc(-c2ccccc2)no1	nt	nt	-6%	0%	-1%	nt	0.4%	6%
COc1ccc(CN2C(=O)NC3(CCCC3)C2=O)cc1F	-8%	3%	5%	9%	?	-3%[46.1 µM]	nt	nt
Cc1ccc([C@@H]2[C@@H]3C(=O)N(C)C(=O)[C@@H]3[C@@H]3C(=O)Nc4ccccc4C(=O)N23)cc1	-8%	7%	0%	8%	nt	nt	nt	nt
O=C(c1noc2c1CCCCC2)N1CCN(c2ccc(Cl)cc2)CC1	?	nt	nt	nt	nt	-12%[46.1 µM]	-6.2%	3%
C/C(=N\NC(=O)Cc1c(F)cccc1Cl)c1cccnc1	2%	2%	24%	4%	13%[46.1 µM]	0%[46.1 µM]	nt	nt
CCOc1ccc(C2C3=C(Nc4nc(N)[nH]c(=O)c42)c2ccccc2C3=O)cc1 (stereo not given)	7%	-12%	17%	11%	?	25%	-0.9%	-5%
CCOc1cc2c(cc1OCC)C(c1ccccc1)N(c1ccc(C(=O)O)cc1)C(=O)C2 (stereo not given)	-13%	-9%	2%	2%	28%[46.1 µM]	2%	nt	nt
Cc1cc(-c2ccc(Cl)cc2)n2ncnc2n1	-9%	11%	0%	0%	0%	nt	nt	nt
CC(=O)Nc1ccc(C(=O)NCC2(N3CCCCC3)CCCCC2)cc1	7%	-23%	-5%	4%	?	nt	nt	nt
CC1CC(C)CN(C(=O)Cn2c(=O)n(CCCC(=O)NCc3ccco3)c(=O)c3sccc32)C1 (stereo not given)	5%	1%	2%	-3%	-2%[46.1 µM]	3%[46.1 µM]	nt	nt
CCOc1cc(/C=N/Nc2nc(Nc3ccccc3)nc(N3CCCCC3)n2)ccc1OCC(=O)O	16%	-1%	0%	nt	-3%[46.1 µM]	11%[46.1 µM]	nt	nt
O=C(NCC1CCCO1)c1ccccc1-c1nc(-c2ccccc2Cl)no1 (stereo not given)	17%	-21%	-2%	-6%	?	6%[46.1 µM]	nt	nt
COc1cc(C2c3c(oc4ccccc4c3=O)C(=O)N2Cc2cccnc2)cc(OC)c1OC (stereo not given)	nt	nt	2%	0%	nt	nt	-0.9%	-5%
COc1cc(CCNC(=O)c2ccccc2NC(=O)C2=C(C)OCCS2)cc(OC)c1OC	?	20%	-4%	-11%	nt	nt	nt	nt
Cc1cc(N2CCOCC2)c2c(N)c(C)cc(C)c2n1	-5%	-11%	nt	0%	2%	1%	0.0%	1%
Cc1nc(CNS(=O)(=O)c2cccc(F)c2)cs1	13%	-13%	4%	6%	-1%	?	8.2%	-5%
Cc1c(NC(=O)COC(=O)C2=COCCO2)cccc1[N+](=O)[O-]	-16%	-22%	6%	nt	24%	-1%	nt	nt
O=C(NCCOc1ccccc1)c1cc(C(=O)NCCOc2ccccc2)cc([N+](=O)[O-])c1	-17%	-9%	-31%	?	-33%	?	-5.0%	-2%
COc1cccc(N2CCN(C(=O)c3cccn3-c3nnc(N4CCCCC4)s3)CC2)c1	-13%	nt	nt	nt	nt	?	0.0%	-9%
Cc1cc(NC(=O)c2ccccc2F)ncc1NC(=O)c1cccs1	41%[activator]	-30%	-1%	-6%	nt	nt	nt	nt
COCCCNCCOCCOc1c(OC)cccc1OC	3%	2%	7%	10%	18%	9%	4.3%	-3%
C[C@@H](C(=O)Nc1cccnc1)n1c(=O)[nH]c2ccccc2c1=O	-29%	3%	8%	3%	nt	nt	nt	nt
CN(C)NC(=S)Nc1ccc(S(=O)(=O)N2CCCCC2)cc1	-6%	3%	1%	0%	-1%[46.1 µM]	24%	nt	nt
CCCc1nn(C)c(C(N)=O)c1[N+](=O)[O-]	-6%	-4%	1%	nt	4%[46.1 µM]	1%[46.1 µM]	nt	nt
(more compounds)
SMILES	2A StopGo	RE007 growth inh	SARS PLP yeast	NS1 function inh	MARV entry inh	LASV entry inh	Cruzain inh Det	Cruzain noTriton
COc1ccc(/C=C2/CCc3ccccc3C2=O)cc1OC	-1%	-8%	-38%	-18%	-22%	?	-13%	1%
COc1ccc(C(=O)Nc2ccc(-n3nncc3C(C)(C)C)cc2)cc1	?	13%	-4%	nt	?	4%	nt	nt
Fc1ccc(-c2ccc(NCCN3CCOCC3)nn2)cc1	36%[activator]	5%	8%	?	?	12%[46.1 µM]	nt	nt
CCCNC(=O)Cn1c(=O)/c(=C/c2ccc(-c3cccc([N+](=O)[O-])c3)o2)s/c1=C\C(=O)C(C)(C)C	-29%	15%	nt	nt	-4%	-11%	nt	nt
Cc1cccc(OCC(O)CN2CCN(S(=O)(=O)c3ccc(C)cc3C)CC2)c1 (stereo not given)	11%	-1%	-2%	-31%	?	-22%[46.1 µM]	nt	nt
O=C(NC1CC2CCCC(C1)N2C(=O)Nc1ccccc1F)C1CC1 (stereo not given)	4%	-7%	1%	3%	5%	7%	nt	nt
CCC1C(C#N)=C(SCC(N)=O)NC2=C1C(=O)CC(C)(C)C2 (stereo not given)	3%	3%	0%	-2%	4%	-20%	nt	nt
COc1ccc(-c2nn(-c3ccccc3)cc2/C=C/C(=O)N2CCN(c3ccccn3)CC2)cc1	2%	0%	-3%	nt	?	?	nt	nt
CCCCC(=O)N/N=C/c1ccc(-c2ccc([N+](=O)[O-])cc2)o1	-13%	0%	-2%	-3%	-31%[46.1 µM]	-10%	nt	nt
O=C(CNC(=O)c1ccc(F)cc1)N/N=C/c1cc(Br)ccc1OCc1ccccc1	-16%	4%	9%	?	?	-10%	-2.7%	?
C=C(C)C1(CCCC)C(=O)NC(=S)NC1=O	-19%	3%	nt	nt	5%	13%[46.1 µM]	nt	nt
Cc1cccc(N2CC(C(=O)Nc3ccc(S(=O)(=O)N4CCOCC4)cc3)CC2=O)c1 (stereo not given)	30%[activator]	9%	0%	nt	13%[46.1 µM]	-2%[46.1 µM]	nt	nt
COc1cc(OC)c(S(=O)(=O)Nc2ccccc2NC(=O)CN2CCOCC2)cc1NC(C)=O	-20%	-14%	0%	3%	nt	nt	nt	nt
N#Cc1sc2nc(-c3ccccc3)cc(-c3ccco3)c2c1N	-15%	-6%	-18%	-54%	3%	?	-14%	-15%

Compound activity: PubChem BioAssay, National Center for Advancing Translational Sciences (NCATS)
